# Bioassay records as filed in PubChem.
# Beta apoptosis – beta cell apoptosis inhibition; protection from apoptosis, % (no concentration beside the values); INS-1E cytokine-induced death, ATP luminescence, 48 h; percent of positive-control rescue, neutral wells zero; 0.8% of 300,000 active;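 active = all replicates at 75% or more, or half of them and the mean; inconclusive = half reach 75% but not the mean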;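 note: 0% = cytokine-treated negative control wells and 100% = positive control rescue; higher means more ATP so stronger rescue from cytokine killing; wells of about 40 µL received 100 nL stock; the first replicate is given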
# LANA-H2B inh – blocks KSHV LANA binding to histone H2A/H2B; AID 2629; cell-free LANA-H2A/H2B peptide, fluorescence polarization; inhibition, % (test concentration not listed); Q9QR71; 0.6% of 320,000 active; in the data active = inhibition mostly above about 10%, no sharp cut-off; inactive = mostly below about 6.7%;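 note: stock transfer was 7.5 nL into about 10 µL; 0% = median of vehicle wells and 100% = median of positive control wells; one replicate is shown; the record names a cut of 25% in any replicate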
# Target sequence (Q9QR71 whole entry, looked up): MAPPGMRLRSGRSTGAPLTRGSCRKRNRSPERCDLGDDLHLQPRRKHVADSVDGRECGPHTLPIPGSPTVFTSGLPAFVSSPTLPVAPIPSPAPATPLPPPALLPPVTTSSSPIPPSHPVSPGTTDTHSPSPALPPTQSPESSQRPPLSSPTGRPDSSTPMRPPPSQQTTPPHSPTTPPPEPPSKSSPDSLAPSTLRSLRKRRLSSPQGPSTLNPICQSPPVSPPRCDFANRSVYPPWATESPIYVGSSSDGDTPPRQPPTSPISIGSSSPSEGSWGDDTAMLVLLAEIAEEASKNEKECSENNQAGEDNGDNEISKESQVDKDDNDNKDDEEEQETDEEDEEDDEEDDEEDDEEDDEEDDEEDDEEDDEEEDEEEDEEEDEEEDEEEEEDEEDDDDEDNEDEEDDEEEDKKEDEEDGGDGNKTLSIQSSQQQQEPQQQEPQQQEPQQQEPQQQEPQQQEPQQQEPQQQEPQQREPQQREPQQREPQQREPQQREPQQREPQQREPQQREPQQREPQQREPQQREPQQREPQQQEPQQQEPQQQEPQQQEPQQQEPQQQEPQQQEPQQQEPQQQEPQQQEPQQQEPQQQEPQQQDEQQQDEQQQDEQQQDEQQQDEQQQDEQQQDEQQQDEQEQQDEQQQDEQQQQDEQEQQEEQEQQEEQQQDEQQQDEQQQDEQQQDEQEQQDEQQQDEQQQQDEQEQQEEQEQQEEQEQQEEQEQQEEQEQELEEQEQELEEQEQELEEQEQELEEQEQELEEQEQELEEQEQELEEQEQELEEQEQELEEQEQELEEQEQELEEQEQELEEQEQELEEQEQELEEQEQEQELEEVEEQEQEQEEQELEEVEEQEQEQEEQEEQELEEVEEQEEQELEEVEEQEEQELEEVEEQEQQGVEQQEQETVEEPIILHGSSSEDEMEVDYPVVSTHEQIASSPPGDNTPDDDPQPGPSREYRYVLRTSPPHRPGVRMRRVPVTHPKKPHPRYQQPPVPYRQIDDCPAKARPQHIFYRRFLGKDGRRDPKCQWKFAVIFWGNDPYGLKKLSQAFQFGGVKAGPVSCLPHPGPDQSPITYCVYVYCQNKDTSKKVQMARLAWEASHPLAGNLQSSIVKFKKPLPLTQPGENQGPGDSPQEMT
# AF4-AF9 inh – blocks AF4 peptide binding to human AF9; P42568; AlphaScreen, biotin-AF4 peptide binding to FLAG-AF9; inhibition, % at 10 µM; 0.47% of 350,000 active; AID 651704;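 active = every replicate reaching a set inhibition limit, whatever the replicate mean, cut at about 25% in these data; inconclusive = mean inhibition reaches that limit but some replicates miss it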;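 note: 0% = plate neutral control median and 100% = total signal loss; the record names both 10 and 1 µM as test concentration; the first replicate is given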
# Vif TR-FRET – inhibitors of Vif binding to APOBEC3G peptide, primary screen, biochemical, TR-FRET, GST-Vif 1-94, biotin-A3G peptide, dose response retest (AID 1117319); TR-FRET GST-Vif / biotin-A3G peptide binding; higher % means a stronger effect; test concentration not given here; strong numbers were not always called active; inhibition, %; hits with a dose series show IC50 in µM; 0.57% of 260,000 active;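 active = above the screen mean plus three standard deviations and confirmed in dose response; inconclusive = results disagree or hit not tested in dose response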;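 note: Vif residues 1-94 fused to GST binding biotinylated APOBEC3G peptide 110-148; 0% = full assay without inhibitor and 100% = GST in place of GST-Vif; retest series ran down from 100 µM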
# RanGTP-Imp inh – disruptors of Ran-importin-beta complex formation – biochemical, FRET, CFP-Ran, YFP-importin-beta, homogeneous, primary screen; inhibition, % (no concentration beside the values); AID 2216; cell-free CFP-Ran/YFP-importin-beta FRET ratio; 1.1% of 300,000 active;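 active = most replicates above 15%; inconclusive = exactly half above 15%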;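 note: 0% = DMSO wells and 100% = Ran loaded with GDP instead of GTP; wells of about 40 µL received 100 nL stock; the first replicate is given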
# T cruzi repl – T. cruzi replication inhibition; T. cruzi beta-gal in NIH3T3, luminescence, 90 h; inhibition, % (test concentration not listed); 1.4% of 300,000 active; AID 1885;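 active = mean inhibition across valid replicates above about 55%, limit read from the data; inconclusive = mean below that limit but half or more replicates reach it; inactive = mean below it, under half of replicates reach it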;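 note: signal also drops with host cell toxicity which is not excluded here; 0% = plate median of DMSO wells and 100% = zero luminescence signal; higher percent means less beta-gal luminescence so fewer parasites; stock transfer was 50 nL into about 50 µL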
# A1 inh – inhibitors of the anti-apoptotic protein A1, read as caspase activation. MEF A1-2A-BIM cells, Caspase-Glo 3/7 luminescence, 3 h; percent of clofoctol response, vehicle zero. 0.066% of 330,000 active. caspase activation, % (concentration not given with the values). AID 2462;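 active = over half of replicate activation scores above 10%, or exactly half above 10 with the replicate mean above 10; inconclusive = replicate mean below 10 yet half the replicates above 10; inactive = over half of replicates below 10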;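 note: wells of about 30 µL received 50 nL stock; many hits fall short of the cut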
# Calb FLC – affects C. albicans growth with fluconazole. C. albicans CaCi-2 (fluconazole-resistant clinical isolate) + fluconazole, Alamar Blue growth, 48 h. growth inhibition, % (no concentration beside the values). 0.57% of 300,000 active. AID 1979;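 active = most replicates above 75%; inconclusive = exactly half above 75%; inactive = most below 75%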;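 note: all wells also contain fluconazole at 8 µg/ml as a sub-toxic cotreatment; 0% = median of DMSO wells and 100% = median of geldanamycin control wells; wells of about 8 µL received 7.5 nL stock; the first replicate is given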
# Numbers without * were called inactive; ? = inconclusive; . = no result given.
SMILES,Beta apoptosis,LANA-H2B inh,AF4-AF9 inh,Vif TR-FRET,RanGTP-Imp inh,T cruzi repl,A1 inh,Calb FLC
COc1ccccc1CNC(=O)C1CCCN(S(=O)(=O)c2ccc3c(c2)CC(C)N3C(C)=O)C1 (stereo not given),5,0.9,-0.5,.,3.6,15,0.7,0
CC1C(=NO)C(C)C(c2ccc(N(C)C)cc2)NC1c1ccc(N(C)C)cc1 (stereo not given),-2,-4.2,43*,2%,1.1,-22,-0.2,1
CCOC(=O)CCCNC(=O)CCNC(=O)c1ccc(OCC)cc1,-6,-2.1,.,-2%,-1.6,-3,-0.1,-8
O=C(Nc1cccc(-n2cccn2)c1)C1CCCN(Cc2ccc(C#CCCO)cc2)C1 (stereo not given),1,-1.5,2.9,-5%,-0.6,53,0.9,-13
CC1(C)CC(=O)C/C(=N\NC(=S)NCc2ccccc2)C1,11,0.6,0.7,-6%,1.5,-14,0.2,12
COc1ccc(OCC(=O)NCC(c2ccc(OC)cc2)N2CCCCC2)cc1 (stereo not given),.,.,0.0,-2%,0.2,13,.,1
N#CC1=C2N=C(N)c3ccccc3N2C2=C(C(=O)CCC2)C1c1ccc(Cl)cc1 (stereo not given),-7,2.6,-5.6,4%,4.2,24,0.0,66
O=C(O)C1CC(=O)N(c2ccc(F)cc2)C1 (stereo not given),-2,-3.5,.,-6%,1.4,-1,0.0,2
CCOc1ccc(-n2c(C)cc(C(=O)NS(=O)(=O)c3ccc(C)cc3)c2C)cc1,-3,-12,-1.3,.,-0.2,-4,-1.1,-6
O=C(COC(=O)Cc1ccsc1)Nc1ccc(Cl)c(S(=O)(=O)N2CCOCC2)c1,7,0.8,6.9,11%,4.7,-7,-1.2,-17
CCCCNC(=O)c1ccc(CS(=O)(=O)c2ccccc2OC)o1,-5,-3.4,-12,-1%,4.3,-11,-0.9,-8
CN(C(=O)CSc1nc2ccccc2n1C)C1CCS(=O)(=O)C1 (stereo not given),-9,4.1,0.7,-5%,.,.,0.5,.
COc1ccc2nc(NC(=O)C3CCCN3S(=O)(=O)c3ccc(C)cc3)sc2c1 (stereo not given),9,1.3,.,7%,4.1,.,0.7,1
CCC(=O)OCC(=O)Nc1cc([N+](=O)[O-])ccc1Cl,-1,10,-2.3,-4%,1.2,-1,0.2,5
O=C(Nc1ccccc1F)N1CCCC1c1cccnc1 (stereo not given),.,-2.2,0.1,1%,?,19,-0.8,-6
CSc1ccccc1NC(=O)CN(C)C(=O)c1ccc(-n2cccn2)cc1,2,-3.9,-28,-10%,.,.,-0.6,.
O=C(C1COc2ccccc2O1)N1CCN(Cc2ccc3c(c2)OCO3)CC1 (stereo not given),-7,-4.0,.,1%,-1.7,18,-0.8,-4
CC(=O)NC(Cc1c[nH]c2ccccc12)C(=O)OCC(=O)N1CCCCCC1 (stereo not given),-2,3.6,-0.3,8%,2.1,-18,-0.1,5
O=C(COc1ccccc1)NCC(=O)Nc1cccc2ccccc12,-4,1.1,.,7%,-2.3,1,0.2,?
COc1ccc(NS(=O)(=O)c2ccc(-n3cnnn3)cc2)cc1OC,.,.,2.2,.,-1.7,-3,.,-5
Cc1cc(C)nc(/N=C(\N)Nc2ccccc2-c2ccccc2)n1,15,0.9,1.0,12%,2.6,24,-0.2,-38
O=C(CC(c1ccccc1)c1ccccc1O)NCc1ccccc1 (stereo not given),.,-0.5,1.9,14%,-6.0,4,1.3,15
CCCCn1c(N)c(N(CC(C)C)C(=O)C2=NN(c3ccccc3)C(=O)CC2)c(=O)[nH]c1=O,0,4.2,-1.0,5%,.,.,?,.
CCOc1ncnc2c1sc1nc(C)cc(C)c12,-5,-5.3,.,.,?,1,0.4,-6
CC(=O)N1CCN(S(=O)(=O)c2cccc(C(=O)NC3CCCc4ccccc43)c2)CC1 (stereo not given),0,-0.3,.,23%,-0.1,12,-0.1,-5
Cc1ccc(S(C)(=O)=NC(=O)c2cc(C)on2)cc1 (stereo not given),-2,3.3,-5.8,.,-0.8,-6,0.7,0
O=C1CN(C(=O)COC(=O)[C@@H]2CCCN2S(=O)(=O)c2ccc(Cl)cc2)c2ccccc2N1,2,5.1,-0.2,-3%,.,.,-0.1,.
N#Cc1c(N)nc2c(c1-c1cccnc1)CCCCC2,-10,-0.4,.,-1%,6.2,-3,0.2,-14
COc1ccc(S(=O)(=O)N2CCC(C(=O)Oc3cccc(C)c3)CC2)cc1OC,-5,0.6,-2.4,7%,-1.0,3,0.8,0
c1ccc(Nc2nc3ccccc3n3cnnc23)cc1,-5,3.8,0.9,-6%,0.7,-5,0.7,3
Cc1cc(NC(=O)CSc2ncnc3ccccc23)no1,2,0.2,6.3,-22%,-2.2,-15,-0.1,5
CCCNC(=O)C1CC(c2ccc(C(F)(F)F)cc2)=NO1 (stereo not given),-4,2.8,-0.9,.,?,-12,0.8,-4
Cc1cc(C)cc(OCC(O)CN2C(=O)NC(C)(C)C2=O)c1 (stereo not given),-4,-0.6,-4.2,-5%,?,-8,0.2,-5
O=C1CC(N2CCN(C/C=C/c3ccccc3)CC2)C(=O)N1CCc1ccccc1 (stereo not given),13,3.6,-2.7,1%,?,20,2.1,-16
Cc1ccc(C(=O)Nc2cccnc2Cl)cc1Cl,-1,-0.4,-0.3,-6%,-5.2,-9,-4.2,3
COC(=O)C1(C)NC(c2ccc(OC)cc2)C2C(=O)N(c3ccccc3)C(=O)C21 (stereo not given),-8,1.3,-0.3,-1%,-2.2,-11,0.7,.
CC(=O)N1CCN(c2ccc([N+](=O)[O-])cc2)CC1,.,-0.2,0.0,.,-4.1,2,-3.0,-8
CCCNC(=O)CSc1nnc(-c2ccccc2Br)n1-c1cccc(C(F)(F)F)c1,-1,-0.1,-1.6,20%,.,2,-0.3,.
c1ccc(-n2cnc3cc(NCc4ccncc4)ccc32)cc1,0,0.9,.,5%,1.2,12,-0.2,3
CSc1nnnn1-c1cccc(O)c1,1,-0.3,.,4%,-2.5,-9,?,-7
O=C(NC1CCCC1)c1cc(-c2ccc(Cl)cc2)on1,8,0.1,1.9,-3%,1.1,15,-0.6,9
Cc1ccccc1CS(=O)(=O)Cc1ccc(C(=O)NCCCN2CCCC2=O)o1,-3,1.9,-4.1,4%,-0.5,1,0.0,-4
O=C1C(=O)N(Cc2cccnc2)C(c2cccc(Br)c2)/C1=C(/O)c1ccc2c(c1)OCO2 (stereo not given),-3,3.2,-0.4,0%,1.2,2,0.3,-3
O=C(NC1CCN(Cc2ccccc2)CC1)C1CCN(S(=O)(=O)c2ccccc2)CC1,1,0.8,-7.0,.,0.3,57*,-0.1,-1
O=C(N/N=C/c1cccc(OC(=O)c2cccc(Br)c2)c1)c1ccncc1,-5,3.5,0.8,.,3.5,-8,1.2,-6
Cc1cc(C)c(C#N)c(SCC(=O)Nc2nonc2N)n1,2,-3.9,-1.5,.,1.8,14,0.4,3
COc1ccc(C2=C(Nc3ccccc3)c3ccccc3C2=O)cc1,4,.,0.0,.,5.4,6,-1.0,?
CCOc1ccc(NC(=O)c2ccc(F)cc2F)cc1,-3,0.4,-0.3,.,6.1,-8,-2.5,38

# Some of these compounds in order of length of the SMILES, lowest first.
SMILES,Beta apoptosis,LANA-H2B inh,AF4-AF9 inh,Vif TR-FRET,RanGTP-Imp inh,T cruzi repl,A1 inh,Calb FLC
Cc1cc(C)c(C#N)c(SCC(=O)Nc2nonc2N)n1,2,-3.9,-1.5,.,1.8,14,0.4,3
CC(=O)N1CCN(c2ccc([N+](=O)[O-])cc2)CC1,.,-0.2,0.0,.,-4.1,2,-3.0,-8
O=C(N/N=C/c1cccc(OC(=O)c2cccc(Br)c2)c1)c1ccncc1,-5,3.5,0.8,.,3.5,-8,1.2,-6

# (list continues)
SMILES,Beta apoptosis,LANA-H2B inh,AF4-AF9 inh,Vif TR-FRET,RanGTP-Imp inh,T cruzi repl,A1 inh,Calb FLC
CCCCCCSc1cccc(-c2nc3ccc(C)cn3c2NC2CCCCC2)c1,1,2.5,-0.2,.,2.9,14,1.6,-11
N#Cc1c(NC(=O)CCCC(=O)O)sc2c1CCCCC2,-4,1.2,.,.,3.9,-5,0.5,-23
Cc1nc(Cl)c(C#N)c2c1CCCC2,-4,-1.9,2.7,1%,1.4,-4,-0.3,2
CCOc1ccccc1N(CC(=O)NCCOC)C(=O)CCC(=O)Nc1ccccn1,3,-1.3,0.4,-5%,0.9,-3,1.0,-6
O=C(CN1CC(=O)Nc2ccccc21)Nc1ccc(F)c(F)c1,-2,5.9,-1.9,3%,5.1,-3,1.1,-5
CC(=O)c1cc(-c2ccccc2)n(CC(=O)N2CCCCC2)c1C,-4,7.6,.,28%,2.0,-10,?,-5
O=C(c1ccc(OC2CCN(Cc3ccccn3)CC2)cc1)N1CCCCO1,-4,2.1,-13,-5%,0.0,1,0.4,-15
Cc1ccc(NC(=O)c2ccc3c(c2)C(=O)N(CC2CCCO2)C3=O)cc1C (stereo not given),0,-4.3,-2.0,.,1.1,-1,0.2,-25
Cc1cccc(C(=O)Nc2ccc(C(=O)N/N=C/c3ccc4c(c3)OCO4)cc2)c1,7,4.8,?,.,-2.6,0,1.2,-5
CC(=O)N1CCCc2cc(S(=O)(=O)N(CC(C)C)CC(C)C)ccc21,7,-2.1,.,-7%,-8.0,8,0.6,4
CCC(C)N1CCC2(CC1)N=c1c(c3c4c5c(C)c(O)c3c(O)c1=NC(=O)C(C)=CC=C[C@H](C)[C@H](O)[C@@H](C)[C@@H](O)[C@@H](C)[C@H](OC(C)=O)[C@H](C)[C@@H](OC)C=CO[C@@](C)(O5)C4=O)N2 (stereo not given in full),10,-0.8,27*,.,.,.,-0.2,.
Cc1cccc(NC(=O)COC(=O)c2cccc(S(=O)(=O)N3CCCCCC3)c2)c1,4,-0.5,-0.5,.,.,.,0.3,.
O=C(C1CCC1)N1CCN(S(=O)(=O)c2ccc([N+](=O)[O-])cc2)CC1,1,-392,0.1,-11%,.,.,1.1,.
CC1CCCCC1NC(=O)COC(=O)c1ccc2c(c1)NC(=O)CS2 (stereo not given),-4,-2.0,-2.9,.,.,.,-0.4,.
Cn1c(CC(=O)NNC(=O)c2ccccc2F)nc2ccccc21,3,0.9,0.2,-6%,.,.,-0.6,.
O=C(NN1CCOCC1)c1cc(-c2ccncc2)nc2ccccc12,-4,4.8,-0.3,1%,5.2,-12,0.6,-20
CN1CCN(c2ccc(C(CC(N)=O)NC(=O)Cc3cccc4ccccc34)cc2[N+](=O)[O-])CC1 (stereo not given),-1,-2.4,-1.3,.,8.3,-6,-0.2,10
Cc1ccc(N(C(=O)Cc2cccs2)C(C(=O)NCC2CCCO2)c2ccncc2)cc1 (stereo not given),1,2.2,-1.8,-1%,-2.0,-9,0.5,7
CCOC(=O)N1CCN(C2CC(=O)N(c3ccccc3)C2=O)CC1 (stereo not given),-4,3.0,-15,-2%,-2.5,-12,0.2,-10
O=C(NC1CCCCC1)c1cccc(S(=O)(=O)N2CCCCC2)c1,-1,1.8,1.2,.,5.6,8,0.7,23
Cc1ccc(CNC(=O)CN(c2cccc([N+](=O)[O-])c2)S(C)(=O)=O)cc1,4,-1.6,-5.0,79%,-8.1,-22,0.0,-2
CC1(c2ccccc2)NC(=O)N(CC#N)C1=O (stereo not given),0,-4.5,-2.7,.,4.1,-7,0.1,-5
